# Cruzain noTriton – qHTS Assay for Promiscuous and Specific Inhibitors of Cruzain (without detergent); Cruzipain (Trypanosoma cruzi), P25779; purified cruzain, Z-FR-AMC fluorescence, no detergent; Potency, µM, for the others: max response, negative = inhibition, hits mostly inhibitors; actives 2.3% (n = 200,000);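 also: plate controls were enzyme without inhibitor for no effect and buffer without enzyme for full effect; nearly all actives have a fitted effect of over 40% in size; top concentration of the series not given in the record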
# Target sequence (P25779 123-467 limits assumed): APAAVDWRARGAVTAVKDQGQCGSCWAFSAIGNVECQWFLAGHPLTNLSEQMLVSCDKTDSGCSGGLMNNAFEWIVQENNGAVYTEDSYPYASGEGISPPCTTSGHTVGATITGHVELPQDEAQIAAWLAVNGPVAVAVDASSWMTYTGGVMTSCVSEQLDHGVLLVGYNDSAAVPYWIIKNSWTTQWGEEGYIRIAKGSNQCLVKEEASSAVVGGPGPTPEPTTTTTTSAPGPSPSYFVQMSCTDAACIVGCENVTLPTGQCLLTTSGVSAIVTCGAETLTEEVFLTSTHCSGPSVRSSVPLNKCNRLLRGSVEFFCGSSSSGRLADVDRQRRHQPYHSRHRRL
#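 Purified cruzain at 1.5 nM, pre-incubated 15 min with compound at room temperature in 100 mM sodium acetate pH 5.5, 5 mM DTT, 0.00005% Triton X-100. Reaction started with 2 uM Z-FR-AMC; AMC fluorescence increase over 60 s gives rate.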
# NS1 inh – qHTS Assay for Inhibitors of Influenza NS1 Protein Function | S. cerevisiae slowed by influenza A NS1, growth recovery by OD600 | Potency, µM (series often up to 46.1 µM), without a hit: at the highest dose activity, positive = more growth | actives 0.4% (n = 270,000); active means well fitted rising curve with a large enough effect; inconclusive means small, poorly fitted or top-dose-only effect; inactive means no such curve, though single readings can be large or run the other way; also: nearly all actives have a fitted effect of over 50% in size
#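 Growth recovery, yeast-based: influenza A NS1 expressed in S. cerevisiae causes slow growth, and suppressors are detected by OD600. The parent strain without NS1 is used as positive control.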
# LASV entry inh – qHTS for Inhibitors of binding or entry into cells for Lassa Virus. Potency, µM (highest dose often 37.9 µM), inactives show at the highest dose activity change, negative = inhibition, most hits filed as inhibitors. Lassa virus pseudotype entry inhibition, cell reporter; control for the full effect not named in the record. AID 540256, 2011. actives 1.2% (n = 300,000); active means well fitted inhibition curve with a large enough effect; inconclusive means small, poorly fitted or top-dose-only effect, or effect the other way; inactive means flat fitted curve, though single readings scatter; tested in HEK293 cells; also: % is scaled to controls: 0 for no effect and ±100 for the full control effect; nearly all actives have a fitted effect of over 50% in size; luciferase read-out
# Cruzain Triton – qHTS Assay for Promiscuous and Specific Inhibitors of Cruzain (with detergent); Cruzipain (Trypanosoma cruzi), P25779; purified cruzain, Z-FR-AMC fluorescence, 0.01% Triton; Potency, µM, inactives show max response, negative = inhibition, usual class: inhibitors; actives 0.43% (n = 200,000); AID 1478, 2009;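 also: plate controls were neutral wells for no effect and buffer without enzyme for full effect; nearly all actives have a fitted effect of over 40% in size; top concentration of the series not given in the record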
#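 Purified cruzain (1.5 nM final) was preincubated with compounds for 15 min at room temperature in 100 mM sodium acetate pH 5.5, 5 mM DTT, 0.01% Triton X-100. Reaction started with 2 uM Z-FR-AMC; AMC fluorescence change over 60 s gave activity.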
# RE007 growth inh – qHTS Assay for Inhibitors of the HIV-1 protein Vpr | S. pombe RE007 Vpr strain, BacTiter-Glo ATP luminescence, 24 h; control for the full effect not named in the record | Potency, µM (highest dose often 92.2 µM), for the others: top-dose activity change, negative = less growth | actives 0.21% (n = 360,000); active = well fitted falling curve with a large enough effect; inconclusive = small, poorly fitted or top-dose-only effect; inactive = no such curve, though single readings can be large or run the other way;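 also: % is scaled to controls: 0 for no effect and ±100 for the full control effect; nearly all actives have a fitted effect of over 50% in size; the assay follows cell death caused by Vpr and the record does not say whether a fall means rescue or toxicity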
#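 Fission yeast strain RE007, carrying one chromosomally integrated HIV-1 vpr copy, was seeded at OD 0.01 in PMG+AL medium with 23 nL pinned compound. After 24 h at 30 °C and 99% humidity, viability was read by BacTiter-Glo luminescence.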
# MARV entry inh – qHTS for inhibitors of binding or entry into cells for Marburg Virus. Marburg virus pseudotyped entry inhibition, cell reporter; control for the full effect not named in the record; about a third of the inactives were read at about 46 µM. AID 540276, 2011. actives 1.8% (n = 300,000). Potency, µM (top dose mostly 37.8 µM), inactives show at the highest dose activity change, negative = inhibition, most hits filed as inhibitors; active = well fitted inhibition curve with a large enough effect; inconclusive = small, poorly fitted or top-dose-only effect, or effect the other way; inactive = flat fitted curve, though single readings scatter; tested in HEK293 cells; about a fifth of its hits are not listed in these tables; also: % is scaled to controls: 0 for no effect and ±100 for the full control effect; luciferase read-out
# 2A StopGo – High Throughput Screening for Foot and Mouth Disease Virus Antivirals; human cells with a luciferase reporter of 2A StopGo recoding; control for the full effect not named in the record; Potency, µM (doses to about 57.9 µM), for the others: at the top dose signal change, negative = less light; actives 1.2% (n = 410,000); active = well fitted falling curve with a large enough effect; inconclusive = small, poorly fitted or top-dose-only effect; inactive = no such curve, though single readings can be large or run the other way; tested in HEK293T cells; also: % is scaled to controls: 0 for no effect and ±100 for the full control effect; nearly all actives have a fitted effect of over 45% in size; luciferase light after 4 h
# SARS PLP yeast – qHTS of Yeast-based Assay for SARS-CoV PLP | S. cerevisiae expressing SARS-CoV PLpro, growth rescue; control for the full effect not named in the record | Potency, µM (series often up to 32.9 µM), for the others: at the highest dose activity, positive = growth rescue | actives 0.19% (n = 330,000); active means well fitted rising curve with a large enough effect; inconclusive means small, poorly fitted or top-dose-only effect; inactive means no such curve, though single readings can be large or run the other way; also: 0% is about no effect; nearly all actives have a fitted effect of over 55% in size; growth read by luminescence after 48 h
# * hit, by the source's call; u = inconclusive; x = not tested or not shown; [ ] = dose if it differs, or a comment. Unless noted, calls follow the shape of the dose curve; as a rule, active = well fitted curve in the direction sought with a large enough effect; inconclusive = small, poorly fitted or top-dose-only effect, or another doubt; inactive = no such curve, though single readings can be large; an effect the other way counts as inactive or inconclusive. Potency is read from the fitted curve at half-maximal effect.
SMILES,Cruzain noTriton,NS1 inh,LASV entry inh,Cruzain Triton,RE007 growth inh,MARV entry inh,2A StopGo,SARS PLP yeast
CCNc1nc(NC(C)(C)C)nc(N(CC)n2cnnc2)n1,-8%,-20%,-1%,0.2%,4%,26%,x,-3%
CCOc1ccc(CCNC(=O)c2cccnc2N2CCCC2)cc1OCC,-6%,-3%,0%,-0.7%,9%,8%,-3%,3%
Cc1cc(C)c2[nH]c(=O)c(CN(Cc3cccs3)C(=S)NCC3CCCO3)cc2c1 (stereo not given),-8%,-3%,u,-4.2%,-3%,u,-11%,3%
Cc1ncc([N+](=O)[O-])n1S(=O)(=O)c1cc(Cl)ccc1Cl,x,11%,13%,x,-2%,28%,-17%,1%
Cc1cc(S(=O)(=O)NC(C)C)ccc1OCC(=O)Nc1ccc2c(c1)OCCO2,x,-1%,-4%,x,-4%,6%[46.1 µM],43%[activator],0%
O=C(Nc1ccc(Br)cc1)c1cc(-c2cccs2)on1,x,-4%,-27%[46.1 µM],x,-19%,u,46%[activator],3%
COc1cccc(NC(=O)c2cccc(C(=O)Nc3cccc(OC)c3)c2)c1,x,-3%,15%,x,1%,3%,-9%,0%
O=S(=O)(Nc1ccc(N2CCCCC2)cc1)c1ccccc1,-1%,u,-4%,-2.6%,-6%,-21%,18%,-23%
O=C(CSc1nnc(-c2cccnc2)n1Cc1ccco1)N1CCc2ccccc21,14%,-6%,-9%,3.2%,8%,1%,5%,-3%
O=C(COC(=O)c1c[nH]c(=O)[nH]c1=O)NCc1ccccc1,0%,-2%,15%,-2.2%,-4%,-2%,-16%,3%
CCCCC(=O)N/N=C/c1c(O)n(-c2ccccc2)c(=O)[nH]c1=O,x,-6%,-7%,x,-3%,-3%,8%,-2%
Cc1[nH]c2ccccc2c1C(=O)CSc1ccccn1,x,-5%,24%[46.1 µM],x,4%,u,2%,0%
O=C(COC(=O)Cc1ccccc1F)Nc1cccc(S(=O)(=O)NC2=NCCCCC2)c1,x,x,7%,x,-6%,-4%[46.1 µM],17%,3%
CCN(CC)C(=O)C1CCCN(c2ncnc3c2cnn3-c2ccc(Cl)cc2)C1 (stereo not given),x,-76%,x,x,5%,x,20µM*,-12%
c1cncc(-c2nn3c(Cn4cnc5ccccc54)nnc3s2)c1,-13%,-118%,-3%,7.4%,-18%,2%,x,-2%
O=C(Nc1ccc2c(c1)nc1n2CCSC1)c1ccco1,-3%,u,u,-0.3%,-6%,u,-52%,-19%
COC(=O)c1ccc(NC(=O)C(=O)NCC(c2cccnc2)N2CCN(c3ccccc3)CC2)cc1 (stereo not given),-4%,x,-9%[46.1 µM],6.1%,x,x,-9%,x
O=C(CCC(=O)N1CCCCCC1)NCc1ccc(F)cc1,x,17%,x,x,2%,x,-20%,-1%
CCC1CCCCN1C(=O)CSc1nnc(-c2cccs2)o1 (stereo not given),-10%,-29%,u,-1.0%,15%,u,2%,-4%
Cc1cc(N(CCCl)CCCl)ccc1C=NNC(=O)c1cccnc1,x,x,u,x,3%,u,-5%,x
Cc1cccc(OCCCC(=O)NCc2ccco2)c1,4%,0%,3%,0.6%,-4%,1%,19%,-4%
COc1nc(Nc2ccc(O)cc2)nc(OC(C(F)(F)F)C(F)(F)F)n1,-3%,-33%,u,-9.2%,9%,9%,u,1%
Cc1ccc(-c2cc3c(n2-c2ccccc2F)CC(C)(C)CC3=O)cc1,9%,x,26%[46.1 µM],1.0%,x,9%[46.1 µM],-27%,x
COc1ccc(CCNc2nc(-c3ccc(C)cc3)cc(C(F)F)n2)cc1OC,-6%,x,u,1.6%,x,11%[46.1 µM],-11%,x
O=C(NCCc1ccc(Cl)cc1)C1CCN(S(=O)(=O)c2cccs2)CC1,-2%,0%,-22%,-4.1%,11%,u,-28%,6%
NNC(=O)CNS(=O)(=O)c1ccc([N+](=O)[O-])cc1,x,8%,-13%[46.1 µM],x,-2%,-1%[46.1 µM],0%,5%
CC(C)NS(=O)(=O)c1ccc2c3c(cccc13)CC2,x,-6%,4%,x,2%,3%[46.1 µM],50%[activator],-1%
COc1cccc(NC(=O)CSc2nnnn2C2CCCC2)c1,x,-5%,-2%,x,-4%,-21%[46.1 µM],63%[activator],-1%
COC(c1ccccc1)c1nnc(CCC(=O)NCc2cccc(-n3cccn3)c2)o1 (stereo not given),x,1%,-12%[46.1 µM],x,1%,-3%[46.1 µM],-13%,1%
Cc1cc(N2CCC(N(C)C3CCCC3)CC2)nc2cc(O)ccc12,0%,-1%,x,-14%,-5%,x,-9%,8%
C=C1N(c2cccc(Cl)c2)C(=O)OC1(C)C,x,3%,6%[46.1 µM],x,-6%,5%[46.1 µM],3%,-2%
COc1ccc2nc(C)cc(SCC(=O)OC(C)C)c2c1,x,-8%,6%,x,-19%,-18%,-16%,0%
CC1=NN(Cc2ccccc2)C(=O)C1C(c1ccncc1)C(C#N)C#N (stereo not given),x,2%,x,x,-13%,x,-15%,1%
Cc1cc(C)cc(-n2ncc3c2CCCC3NC(=O)c2csnn2)c1 (stereo not given),x,0%,u,x,6%,17%[46.1 µM],9%,0%
Cc1cccc2c1cnn2C(=O)CCC(=O)N1CCC(C)CC1,x,-30%,x,x,-18%,x,18%,-4%
CCNC(=O)N1CCCC(C(=O)c2ccc(-c3ccccc3)cc2)C1 (stereo not given),x,-142%,x,x,-1%,x,23%,-26%
O=C1CC(c2nc3ccccc3[nH]2)CN1c1cccc(C(F)(F)F)c1 (stereo not given),-9%,-25%,u,-25%,-4%,0%,u,2%
CC(=O)Cn1cnc2sc(-c3ccccc3)cc2c1=O,-1%,-63%,u,4.9%,u,-1%[46.1 µM],47%[activator],-11%
O=C(NNC(=O)c1ccc(-n2cncn2)c([N+](=O)[O-])c1)c1cccc(Cl)c1,x,x,-6%,x,-2%,-3%,6%,-2%
Cc1cc2c3c([nH]c2cc1S(=O)(=O)NCc1ccc(CN2CCCCCC2)o1)CC(C)(C)CC3=O,x,0%,u,x,-5%,u,38%[activator],12%
Cc1ccc(S(=O)(=O)N(CC(=O)Nc2ccccc2)C(=O)N2CCN(C)CC2)cc1,x,x,27%,x,8%,1%,-6%,0%
O=C(Nc1ccc(F)cc1)C1CCN(c2nc3ccccc3n3cccc23)CC1,10%,x,20%[46.1 µM],-5.5%,x,x,-2%,x
Cc1nn(CC(=O)NCCCc2ccccc2)c(=O)c2cc3occc3n12,x,20%,x,x,0%,x,-12%,3%
COc1ccc(NC(=O)c2ccc(S(=O)(=O)N3CCOCC3)o2)cc1,x,2%,x,x,8%,x,7%,1%
COc1ccc(NC(=O)CS(=O)c2cccc(Cl)c2)cc1 (stereo not given),x,-23%,10%[46.1 µM],x,12%,12%[46.1 µM],7%,4%
N/C(=N\OC(=O)Cc1ccc(Cl)cc1)c1cccnc1,4%,-25%,11%,2.2%,-23%,10%,6%,-5%
O=C(c1ccoc1)N1CCCC(N2CCN(c3ccc(F)cc3)CC2)C1 (stereo not given),x,-3%,x,x,0%,x,-19%,16%
COc1ccc(NC(=O)N2CCC3(CC2)OCCO3)cc1,x,0%,7%,x,-13%,5%,26%,1%
CCOP(=O)(OCC)C(NC(=O)c1ccccc1)=C(Cl)Cl,3%,-4%,10%,-1.0%,-17%,13%,-4%,10%
CCOC(=O)N1CCC(N(CCN(C)C)C(=S)Nc2cc(C)ccc2C)CC1,-6%,3%,-1%,-1.4%,2%,-13%,-12%,20%
CCC(C)Oc1cccc(C(=O)Nc2ccccc2N2CCOCC2)c1 (stereo not given),-4%,-40%,u,-3.6%,3%,-13%,-5%,-29%
COc1ccccc1CNS(=O)(=O)c1ccc(Cl)s1,x,-20%,6%,x,5%,15%[46.1 µM],36%[activator],-1%

# A draw from above in order of length of the SMILES, descending.
SMILES,Cruzain noTriton,NS1 inh,LASV entry inh,Cruzain Triton,RE007 growth inh,MARV entry inh,2A StopGo,SARS PLP yeast
Cc1cc2c3c([nH]c2cc1S(=O)(=O)NCc1ccc(CN2CCCCCC2)o1)CC(C)(C)CC3=O,x,0%,u,x,-5%,u,38%[activator],12%
O=C(NNC(=O)c1ccc(-n2cncn2)c([N+](=O)[O-])c1)c1cccc(Cl)c1,x,x,-6%,x,-2%,-3%,6%,-2%
Cc1ccc(S(=O)(=O)N(CC(=O)Nc2ccccc2)C(=O)N2CCN(C)CC2)cc1,x,x,27%,x,8%,1%,-6%,0%
CCOC(=O)N1CCC(N(CCN(C)C)C(=S)Nc2cc(C)ccc2C)CC1,-6%,3%,-1%,-1.4%,2%,-13%,-12%,20%
COc1ccc(NC(=O)c2ccc(S(=O)(=O)N3CCOCC3)o2)cc1,x,2%,x,x,8%,x,7%,1%
O=C(c1ccoc1)N1CCCC(N2CCN(c3ccc(F)cc3)CC2)C1 (stereo not given),x,-3%,x,x,0%,x,-19%,16%
CCC(C)Oc1cccc(C(=O)Nc2ccccc2N2CCOCC2)c1 (stereo not given),-4%,-40%,u,-3.6%,3%,-13%,-5%,-29%
COc1ccc(NC(=O)CS(=O)c2cccc(Cl)c2)cc1 (stereo not given),x,-23%,10%[46.1 µM],x,12%,12%[46.1 µM],7%,4%
N/C(=N\OC(=O)Cc1ccc(Cl)cc1)c1cccnc1,4%,-25%,11%,2.2%,-23%,10%,6%,-5%
COc1ccc(NC(=O)N2CCC3(CC2)OCCO3)cc1,x,0%,7%,x,-13%,5%,26%,1%
COc1ccccc1CNS(=O)(=O)c1ccc(Cl)s1,x,-20%,6%,x,5%,15%[46.1 µM],36%[activator],-1%

# Screening results as filed in PubChem.
